VDR inh: vitamin D3 receptor (human) inhibition; AID 504847; VDR-SRC2-3 peptide fluorescence polarization, 2 h; Potency, µM, for inactives: max response, negative = inhibition, hits mostly inhibitors; 0.93% of 400,000 active; P11473; active means well fitted inhibition curve with a large enough effect; inconclusive means small, poorly fitted or top-dose-only effect, or another doubt; inactive means no such curve, though single readings can be large or run the other way; further: series mostly up to about 120 µM
Target sequence (P11473 whole entry, looked up): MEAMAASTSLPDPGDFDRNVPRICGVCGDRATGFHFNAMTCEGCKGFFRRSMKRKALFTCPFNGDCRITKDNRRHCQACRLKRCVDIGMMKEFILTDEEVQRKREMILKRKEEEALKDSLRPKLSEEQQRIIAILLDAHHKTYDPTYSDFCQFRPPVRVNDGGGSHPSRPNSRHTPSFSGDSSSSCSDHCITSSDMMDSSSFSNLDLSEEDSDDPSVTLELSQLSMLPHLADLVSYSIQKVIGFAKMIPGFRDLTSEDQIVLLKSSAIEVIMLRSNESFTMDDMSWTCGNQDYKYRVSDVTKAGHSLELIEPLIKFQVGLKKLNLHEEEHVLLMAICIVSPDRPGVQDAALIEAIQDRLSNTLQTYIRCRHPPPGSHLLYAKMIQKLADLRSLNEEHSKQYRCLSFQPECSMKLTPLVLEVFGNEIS
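FP read-out; VDR + SRC2-3 coactivator peptide; 23 nl compound by pintool; 2 h RT incubation; reagents held at 4 deg C, protected from light.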
An asterisk follows results filed as active; ? = inconclusive; & = joins results of further samples; ! = repeats disagree. On the % scale 0 is the no-effect control and ±100 the full control effect; potency means the concentration at half of the fitted maximal effect. Only part of the results is shown; count on the stated rates, not on these rows.

SMILES	VDR inh
CCc1nnc(NC(=O)CSc2nnc(-c3ccoc3C)n2-c2ccc(C)cc2)s1	-0.8%
CCc1ccc(C(=O)NCc2cccs2)s1	2.4%
CCNC(=O)NCCc1c[nH]c2ccc(Cl)cc12	-9.6%
N#Cc1c(N)nc2c3c(sc(=N)c2c1N)NC(=O)CC3c1ccccc1 (stereo not drawn)	4.9%
COc1ccccc1NC(=O)COC(=O)C1CC(=O)N(c2ccc3c(c2)OCCO3)C1 (stereo not drawn)	-2.8%
CCCCNC(=O)CSc1nc2nc(C)c(Cc3c(F)cccc3Cl)c(C)n2n1	0.3%
Cn1c(=O)[nH]c(=O)c2c1nc(NC1CCCCC1)n2CCO	-25.3%
CCN(CC)CCNC(=O)C1c2ccccc2Oc2ccccc21	11.8%
CCCCn1nc2cc(C(=O)NCc3ccc4c(c3)OCO4)ccc2c1OCC	8.6%
O=c1c(O)cccc2cc(O)c(O)c(O)c12	20µM*!
CCN1CCN(C(=S)c2ccc(OCC(=O)Nc3ccc(OC)cc3)cc2)CC1	15.4%
O=C(CSc1nc(-c2ccccc2)cs1)Nc1ccccc1[N+](=O)[O-]	-10.2%
CN(Cc1c(F)cccc1Cl)C(=O)c1ccc(NS(=O)(=O)c2ccc3[nH]c(=O)[nH]c3c2)cc1	11.7%
CCN(CC)C1CCN(C(=O)CCn2nnnc2CN2CCOCC2)C1 (stereo not drawn)	8.8%
O=C(COC(=O)c1ccc(OC(F)F)cc1)Nc1cccc(S(=O)(=O)NC2=NCCC2)c1	-4.8%

Some of the entries so far, with bars between the fields.
molecule | VDR inh
CCN1CCN(C(=S)c2ccc(OCC(=O)Nc3ccc(OC)cc3)cc2)CC1 | 15.4%
O=C(CSc1nc(-c2ccccc2)cs1)Nc1ccccc1[N+](=O)[O-] | -10.2%
CN(Cc1c(F)cccc1Cl)C(=O)c1ccc(NS(=O)(=O)c2ccc3[nH]c(=O)[nH]c3c2)cc1 | 11.7%

Going on with the list.
SMILES	VDR inh
O=C(Nc1ccc(Cl)c(S(=O)(=O)N2CCOCC2)c1)C1CCC1	-1.6%
C#CCNC(=O)c1cccn1-c1ncc(C(F)(F)F)cc1Cl	-8.1%
CC(=O)Nc1ccc(/C(C)=N/NC(=O)C2CC2c2ccccc2)cc1 (stereo not drawn)	-3.9%
CCCc1n[nH]c(=S)n1Cc1ccco1	3.5%
COc1ccc(-c2cc(C(=O)N3CC4(C)CC3CC(C)(C)C4)no2)cc1OC (stereo not drawn)	-0.6%
Fc1ccccc1Cc1noc(CN2CCCC(CN3CCOCC3)C2)n1 (stereo not drawn)	-26.8%
C=CCNC(=O)c1cnc(-c2ccccc2)nc1-c1ccccc1	-8.4%
CCC1(C)CC(c2csc(N)n2)CCO1 (stereo not drawn)	-2.5%
C=CCSc1nnc(NC(=O)CN2C(=O)NC3(CCCC3)C2=O)s1	-9.5%
CCN(CC)c1ccc(NC(=O)COC(=O)CSc2ccc(Br)cc2C)cc1	-4.6%
Cc1ccc(Oc2nc(-c3cccnc3)nc3ccccc23)c([N+](=O)[O-])n1	-20.5%
O=C(O)c1ccc(N2C(=O)CC(SC(=Nc3ccccc3)Nc3ccccc3)C2=O)cc1 (stereo not drawn)	-3.3%
COc1ccc(C(=O)N(CN2CCCC2=O)c2ccccc2OC)cc1OC	5.9%
Cc1[nH]c2ccc(-c3n[nH]c(=S)n3-c3ccccc3)cc2c1C	-5.5%
COc1ccc(C(C#N)N2N=C(C)CC2c2ccccc2)cc1 (stereo not drawn)	12.3%

Reformatted with bars between the fields: entries from further up.
molecule | VDR inh
CCC1(C)CC(c2csc(N)n2)CCO1 (stereo not drawn) | -2.5%
CCCc1n[nH]c(=S)n1Cc1ccco1 | 3.5%
CCN(CC)C1CCN(C(=O)CCn2nnnc2CN2CCOCC2)C1 (stereo not drawn) | 8.8%
COc1ccccc1NC(=O)COC(=O)C1CC(=O)N(c2ccc3c(c2)OCCO3)C1 (stereo not drawn) | -2.8%
COc1ccc(C(=O)N(CN2CCCC2=O)c2ccccc2OC)cc1OC | 5.9%
COc1ccc(-c2cc(C(=O)N3CC4(C)CC3CC(C)(C)C4)no2)cc1OC (stereo not drawn) | -0.6%
CC(=O)Nc1ccc(/C(C)=N/NC(=O)C2CC2c2ccccc2)cc1 (stereo not drawn) | -3.9%

Following part.
SMILES	VDR inh
COc1ccc(NC(=O)c2cc(OC)c(OC)c(OC)c2)cn1	-9.9%
C#Cc1ccc([C@@H]2C=C(C(=O)NCc3ccccc3)O[C@H](OCc3ccc(CO)cc3)C2)cc1	-17.0%
Cc1ccc(S(=O)(=O)N(C)C)cc1NC(=O)COC(=O)c1ccc2c(c1)NC(=O)CS2	-4.9%
CC(C)Oc1ccc(/C(O)=C2/C(=O)C(=O)N(CCN3CCNCC3)C2c2cccc([N+](=O)[O-])c2)cc1 (stereo not drawn)	-10.1%
CCOc1c(Br)cc(C2NC(=O)CCC2[N+](=O)[O-])cc1OC (stereo not drawn)	-12.5%
CCOc1ccccc1C(=O)N[C@H](C(=O)OCc1csc(CC(=O)Nc2ccc(C)cc2)n1)C(C)C	-8.8%
COc1c(F)c(F)c(C(=O)Nc2ccc(NC(=O)Cc3ccccc3)cc2)c(F)c1F	0.2%
Nc1nc(Nc2cccc(Cl)c2)n[nH]1	27.3%
O=C(NCc1cccc(Cl)c1)c1ccc2c(Cl)c3c(nc2c1)CCCC3	0.5%
COc1ccc(NC(=S)N2CCN(Cc3cccc(F)c3)CC2)c(OC)c1	-20.7%
COc1ccc(NC(=O)c2ccco2)cc1NC(=O)COc1ccc(Cl)c(C)c1	-8.4%
COc1ccc(C(=O)NC2CCN(C(=S)Nc3cc(C)ccc3C)CC2)cc1	9.0%
O=C(CN1CCN(S(=O)(=O)c2ccc(Br)cc2)CC1)N/N=C/c1cc([N+](=O)[O-])ccc1Cl	-11.7%
Cc1cccc(NC(=O)CN2C(=O)c3cccnc3Oc3ccc(Cl)cc32)c1C	-4.5%
CC(C)(C)c1ccc(-n2ncc3c2CCCC3NC(=O)CN2CCOC2=O)cc1 (stereo not drawn)	13.4%
Cc1nc(N2CCN(Cc3ccccc3)CC2)[nH]c(=O)c1C	-6.0%
Cn1nc(C(=O)N2CCN(S(=O)(=O)c3ccccc3)CC2)c2ccccc2c1=O	10.2%
CN(C)c1ncc(C(=O)NCc2ccccc2Cl)cn1	1.4%
S=C(c1ccc(N2CCCC2)c(Br)c1)N1CCCCC1	-24.2%
Cc1ccc(OCC(=O)c2c(N)n(C)c(=O)n(C)c2=O)c([N+](=O)[O-])n1	-6.8%
Cc1cccc(-c2nn3c(=O)cc(CN4CCN(C(=O)/C=C/c5ccccc5)CC4)nc3s2)c1	-11.9%
CCN1C[C@@H]2[C@@H]3C(=O)N(Cc4ccccc4)C(=O)[C@@H]3[C@](CC)(C1=O)N2C(=O)c1ccc(C(C)(C)C)cc1	0.0%
CC(C(=O)NCC1CCCO1)N1C(=O)C2C3CC(C(Br)C3Br)C2C1=O (stereo not drawn)	-1.5%
CCN(CC)S(=O)(=O)c1cccc(-c2nnc(SCC#N)n2Cc2ccccc2)c1	-18.0%
COC(=O)c1sccc1NC(=O)CSc1ccccc1NS(=O)(=O)c1cc(Cl)ccc1Cl	-0.9%
COc1ccc(CCNC(=O)C23CCC(C)(C(=O)O2)C3(C)C)cc1OC (stereo not drawn)	-8.4%
O=C1CN(C(=O)COC(=O)CNS(=O)(=O)c2ccccc2)c2ccccc2N1	-5.3%
Cc1cc(NS(=O)(=O)c2ccc(NC(=O)/C=C/c3c(F)cccc3Cl)cc2)no1	0.9%
CCNC(=S)N1CCC(C(=O)c2ccc(Cl)cc2)CC1	-8.8%
Brc1ccc(C2=Nn3cnnc3SC2)cc1	9.4%
CCOc1ccc(NC(=O)CSc2nc3ccccc3c(=O)n2CCCC(=O)N2CCCC2)cc1	14.2%
CCN(CC)CCCn1c2c(c(SCC(=O)Nc3cc(C)on3)nc1=O)CCC2	-20.4%
Cc1[nH]nc(SCC(=O)NCC(C)C)c1[N+](=O)[O-]	-0.8%
Cc1c(C=O)c(C=O)c(C)n1Cc1ccccc1	-11.8%
Cc1ccc(S(=O)(=O)NCC2CCC(C(=O)NCc3ccc(F)cc3)CC2)cc1 (stereo not drawn)	18.3%
CC(=O)c1ccc(NC(=O)Cn2c(=O)n(Cc3ccco3)c(=O)c3sc4ccccc4c32)cc1	-7.8%
CC(=O)Oc1ccc(OC(C)=O)c(SCCCCCN2CCOCC2)c1	-10.1%
COc1cc2c(c(OC)c1OC)C(=O)CC2	5.9%
C=CCOc1ccc(/C(O)=C2/C(=O)C(=O)N(CCN3CCOCC3)C2c2ccc(C)cc2)cc1 (stereo not drawn)	-11.1%
Cc1ccc(NC(=O)c2ccc(S(=O)(=O)NCc3ccco3)cc2)nc1	-1.9%
O=C(O)C1=CCCN(CCON=C(c2ccccc2)c2ccccc2)C1	6.4%&-3.3%
COc1cc(OC)cc(C(=O)Nc2cc(C)nn2-c2ccccc2)c1	-9.8%
CNS(=O)(=O)c1cc(-c2nnc(Nc3cc(C)ccc3C)c3ccccc23)ccc1C	-3.6%
COc1ccc(Cc2nc3ccccc3n2CC(=O)N/N=C/c2ccccc2)cc1OC	4.2%
CN1CCCN(C(=O)C2CCC(C(=O)N3CCCN(C)CC3)CC2)CC1 (stereo not drawn)	-12.7%

Reformatted in CSV form: part of the list above.
Structure,VDR inh
CNS(=O)(=O)c1cc(-c2nnc(Nc3cc(C)ccc3C)c3ccccc23)ccc1C,-3.6%
COc1ccc(Cc2nc3ccccc3n2CC(=O)N/N=C/c2ccccc2)cc1OC,4.2%

Continued.
SMILES	VDR inh
O=C(c1ccc2c(=O)n3c(nc2c1)CCCCC3)N1CCN(C(c2ccccc2)c2ccccc2)CC1	-8.6%
Cn1c(=O)[nH]c(=O)c2c1nc(SCC(N)=O)n2Cc1cccc(Br)c1	3.9%
O=C(CCSCc1ccc(Cl)cc1)NCc1cccs1	-15.0%
COc1ccc(-c2csc3ncnc(N4CCN(c5ccccc5O)CC4)c23)cc1	-0.8%
O=C(O)C1CCN(C(=O)c2csc(-c3ccc4c(c3)CCO4)n2)CC1	-4.2%
CCN(CC)c1ccc(NC(=O)Nc2ccc(C(C)=O)cc2)cc1	-13.1%
CC(C)(C)Cc1nnc(NC(=O)Cc2ccc([N+](=O)[O-])cc2)s1	?
Cc1ccn(CCC(=O)O)n1	-20.6%
CC(C)Oc1ccc(CNC(=O)C2CCN(C(=O)N3CCOc4ccc(Cl)cc43)CC2)cc1	7.7%
O=C(CN1C2=NCCN2c2ccccc21)c1ccco1	-19.5%
CC(NC(=O)C1=Cc2ccccc2OC1)c1ccccc1 (stereo not drawn)	16.7%
CCOC(=O)c1sc(NS(=O)(=O)c2ccccc2Cl)nc1C	-5.2%
CSc1nc(Nc2ccc(C)cc2)c(C#N)c(-c2ccccc2)n1	13.2%
Cc1cc(C)n(CCCNC(=O)COc2ccc([N+](=O)[O-])cc2)n1	0.0%
CCOC(=O)c1ccc(CNC(=O)c2cc(C(C)(C)C)oc2C)o1	-1.3%
Cc1ccc(CNC(=O)c2cc3sccc3n2Cc2ccc(F)cc2)cc1	3.4%
O=c1nc(SCc2c(F)cccc2Cl)nc(-c2ccccc2)[nH]1	-3.7%
O=C(Nc1ccc(F)c(Cl)c1)N1CCN2CCCCC2C1 (stereo not drawn)	-2.8%
CCN(CC)S(=O)(=O)c1ccc(N2CCOCC2)c(NC(=O)c2cc([N+](=O)[O-])ccc2Cl)c1	5.0%
CS(=O)(=O)c1nc(-c2ccccc2)cc(C(F)(F)F)n1	?
COc1ccc(C2CC(=O)N3C(=C2C#N)SCC3(O)c2ccccc2)cc1 (stereo not drawn)	15.3%
COc1ccc(S(=O)(=O)Nc2cccc(-c3ccc(N4CCC(C)CC4)nn3)c2)cc1OC	4.1%
CC1=NN(C(=O)Cc2ccc([N+](=O)[O-])cc2)C(O)(c2cccnc2)C1 (stereo not drawn)	-10.0%
